Bioassay records: PubChem BioAssay, National Center for Advancing Translational Sciences (NCATS)
PINK1 modulator = modulators of PINK1 expression; 410,000 compounds, 0.2% hits; PINK1 immunofluorescence, high-content cytometry, 24 h; Potency, µM (doses to about 76.6 µM), for inactives: top-dose activation (PINK1 increase), hits mostly activators; AID 624263; active = well fitted activation curve with a large enough effect; inconclusive = small, poorly fitted or top-dose-only effect; inactive = flat fitted curve, though single readings scatter; cell line not stated here;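 further: potency means the concentration at half of the fitted maximal effect; % of control where 0% means no effect; nearly all actives have a fitted effect of over 65% in size; a mitochondrial uncoupler was the plate control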
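Compound titrations (5 concentrations, 24 h) on a stable cell line; DMSO and CCCP controls. Endpoint: fixed-cell PINK1 immunofluorescence with mitochondrial, cell and nuclear markers, scanned by microplate cytometer.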
D2 ag = activates the human D2 dopamine receptor | P14416 | DiscoveRx PathHunter D2 beta-arrestin, luminescence, 90 min; 100% = 57 uM dopamine signal | activation, % (no concentration beside the values) | 360,000 compounds, 0.084% hits; in the data active = activation above about 40%; inconclusive = about 15% to 40%; inactive = below about 15%; further: compound concentration not given in the record; the text of the record calls up to 30% inactive
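Agonist mode: compounds alone added to overnight-plated D2 PathHunter cells for 90 min at 37 C, with 57 uM final dopamine (EC100) defining full response. Beta-arrestin recruitment detected by chemiluminescent reagent, read after 1 h at ambient temperature.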
D2 PAM = potentiates the human D2 dopamine receptor allosterically | P14416 | DiscoveRx D2 beta-arrestin cells, luminescence, 90 min; 100% = 57 uM dopamine signal | potentiation, % (no concentration beside the values) | 360,000 compounds, 0.23% hits; active = potentiation of 50% or more; inconclusive = 30% to 50%; inactive = 30% or less;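 further: compound concentration not given in the record; tested on top of an EC20 dose of dopamine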
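PathHunter beta-arrestin assay in DiscoveRx D2 cells. Compounds were added with an EC20 of dopamine (50 nM final) for 90 min at 37 deg C. Luminescence was read 1 h after detection reagent, with 57 uM dopamine as the EC100 control.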
TRPML1 inh = blocks the human TRPML1 channel; Q9GZU1; TRPML1-inducible cells, Ca2+ dye fluorescence, FDSS; stronger effect = lower value; inhibition of EC80 agonist-evoked calcium signal; activity change, negative = inhibition, % (test concentration not listed); 390,000 compounds, 0.02% hits; in the data active means activity change below about -50%; inconclusive means about -30% to -50%; inactive means above about -30%;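 further: stimulus is agonist 54-4 at its EC80 concentration; on the % scale 0 is the no-effect control and ±100 the full control effect; compound concentration not given in the record; the text of the record puts the active cut at -80%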
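Calcium fluorescence in TRPML1-DL cells induced overnight with Tet: a 110 s read after compound pin addition, then a 110 s antagonist read after challenge with 54-4 at 4 uM final (EC80).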
Six1-Eya2 inh = inhibitors of human Six1/Eya2 interaction. AlphaScreen GST-Six1/His-Eya2 binding, biochemical; stronger effect = lower value; control for the full effect not named in the record. activity change, % (concentration not given with the values). 360,000 compounds, 0.56% hits. AID 651725; in the data active = activity change below about -65%; inconclusive = about -30% to -65%; inactive = above about -30%; further: on the % scale 0 is the no-effect control and ±100 the full control effect
Target sequence (O00167 whole entry, looked up): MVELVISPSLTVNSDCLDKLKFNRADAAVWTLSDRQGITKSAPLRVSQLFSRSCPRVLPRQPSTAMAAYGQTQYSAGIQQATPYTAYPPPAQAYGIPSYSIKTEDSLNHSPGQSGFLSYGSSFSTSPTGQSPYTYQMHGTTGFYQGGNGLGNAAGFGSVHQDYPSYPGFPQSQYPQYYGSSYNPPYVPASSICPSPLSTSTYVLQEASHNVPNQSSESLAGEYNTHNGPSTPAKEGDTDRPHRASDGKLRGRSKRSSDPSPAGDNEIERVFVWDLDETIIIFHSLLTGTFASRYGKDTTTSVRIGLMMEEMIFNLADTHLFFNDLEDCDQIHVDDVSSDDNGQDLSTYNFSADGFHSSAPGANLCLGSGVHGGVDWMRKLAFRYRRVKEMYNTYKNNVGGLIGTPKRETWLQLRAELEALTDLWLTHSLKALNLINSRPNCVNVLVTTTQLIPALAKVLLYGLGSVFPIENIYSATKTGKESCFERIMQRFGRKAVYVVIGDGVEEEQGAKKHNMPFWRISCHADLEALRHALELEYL
Target sequence (Q15475 whole entry, looked up): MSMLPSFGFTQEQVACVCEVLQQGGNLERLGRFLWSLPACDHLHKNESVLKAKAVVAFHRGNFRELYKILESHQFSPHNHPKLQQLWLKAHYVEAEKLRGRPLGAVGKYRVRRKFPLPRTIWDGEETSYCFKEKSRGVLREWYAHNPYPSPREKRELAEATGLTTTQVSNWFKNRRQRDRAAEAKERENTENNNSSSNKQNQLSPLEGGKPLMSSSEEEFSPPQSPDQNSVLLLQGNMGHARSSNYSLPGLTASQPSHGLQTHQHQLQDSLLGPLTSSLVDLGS
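GST-Six1 + His-Eya2 (5X stock: 250/500 nM); Tris pH 8.0, 300 mM NaCl, 0.05% BSA, 0.02% Tween 20; GSH donor/Ni acceptor beads; 1 h 37 °C dark; AlphaScreen readout.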
TRPML1 ag = activates the human TRPML1 channel | activation, % (no concentration beside the values) | TRPML1-expressing cells, Ca2+ dye fluorescence, FDSS; host cell line not named in the record; reference of the full effect not given here | 410,000 compounds, 0.12% hits; in the data active = activation above about 50%; inconclusive = about 30% to 50%; inactive = below about 30%; further: 0% is about no effect; the text of the record puts the active cut at 80%
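Calcium fluorescence on an FDSS kinetic reader gave the read-out. Tet-induced TRPML1-DL cells were plated overnight, dye-loaded (Ca8 with quencher, 45-90 min, room temperature, dark), then read 110 s after compound addition, and again 110 s after 4uM final 54-4 (EC80).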
* marks the source's active call; other numbers are inactive results. Not a hit list; 1% or so of the library scored in one or more.

What do the screens show for `Cc1ccc(O)c(C2=Nc3ccccc3N=C(c3ccc([N+](=O)[O-])cc3)C2)c1`?
PINK1 modulator: 11%; D2 ag: 5.0; D2 PAM: 3; TRPML1 inh: -7; Six1-Eya2 inh: 2; TRPML1 ag: 1.6

How did CC(C)(C)c1cc(NC(=O)COc2ccc(Br)cc2)n(-c2ccccc2)n1 do in these assays?
PINK1 modulator: 0.5%; D2 ag: 2.2; D2 PAM: -4; TRPML1 inh: 51; Six1-Eya2 inh: 7; TRPML1 ag: 5.7

What do the screens show for `CCOC(=O)C1CCN(C(=O)CSc2ccccc2)CC1`?
PINK1 modulator: -1.5%; D2 ag: -3.6; D2 PAM: -5; TRPML1 inh: 33; Six1-Eya2 inh: 2; TRPML1 ag: -0.2

What do the screens show for `Cc1ccc(Cl)cc1NC(=O)NC1COc2ccccc2C1` (configuration not stated)?
PINK1 modulator: 0.7%; TRPML1 inh: 7; TRPML1 ag: 0.6

How did COc1ccc(CCCc2n[nH]c(=S)o2)cc1C do in these assays?
PINK1 modulator: -0.6%; D2 ag: 4.2; D2 PAM: 0; TRPML1 inh: 29; Six1-Eya2 inh: -1; TRPML1 ag: -0.6

Results for CSc1ccccc1NC(=O)c1ccc(CN2CCOCC2)cc1 ?
PINK1 modulator: -1.6%; D2 ag: -1.4; D2 PAM: -11; TRPML1 inh: -14; Six1-Eya2 inh: -4; TRPML1 ag: 0.0

Results for CCN(C(=O)c1cnc(NC(C)C)cc1C(F)(F)F)c1ccc(Cl)cc1 ?
PINK1 modulator: 2.3%; D2 ag: -6.6; D2 PAM: -5; TRPML1 inh: 15; Six1-Eya2 inh: 9; TRPML1 ag: -0.4

How did O=C(COc1ccc(F)cc1Cl)Nc1cccc(S(=O)(=O)N2CCCC2)c1 do in these assays?
PINK1 modulator: -0.7%; D2 ag: 5.6; D2 PAM: -2; TRPML1 inh: 18; Six1-Eya2 inh: -5; TRPML1 ag: 1.7

Results for COc1ccc2cnn(-c3ccccc3C)c(=O)c2c1OC ?
PINK1 modulator: -0.7%; D2 ag: -0.4; D2 PAM: -8; TRPML1 inh: -12; Six1-Eya2 inh: 6; TRPML1 ag: 0.6

How did CCC1(c2ccccc2)NC(=O)N(CC(=O)Nc2ccc(S(=O)(=O)Nc3ncccn3)cc2)C1=O (configuration not stated) do in these assays?
PINK1 modulator: 1.4%; D2 ag: -2.6; D2 PAM: -1; TRPML1 inh: -1; Six1-Eya2 inh: 4; TRPML1 ag: -0.3

What do the screens show for `O=C(O)COc1ccccc1/C=C1\SC(=S)N(/N=C/c2ccccc2O)C1=O`?
PINK1 modulator: 1.4%; D2 ag: -6.1; D2 PAM: -8; TRPML1 inh: -9; Six1-Eya2 inh: -29; TRPML1 ag: -1.7

What do the screens show for `CN(C(=S)NC(=O)C1CC1)c1ccc(O)cc1`?
PINK1 modulator: -2.7%; D2 ag: 5.4; D2 PAM: 26; TRPML1 inh: 27; Six1-Eya2 inh: 2; TRPML1 ag: -0.3

Results for COc1ccc(NC(=O)C2CCN(S(=O)(=O)c3c(C)nn(C)c3C)CC2)cc1 ?
PINK1 modulator: -1.2%; D2 ag: -2.1; D2 PAM: -13; TRPML1 inh: 6; Six1-Eya2 inh: -1; TRPML1 ag: -0.5

How did Cc1ccc(OCC(=O)NCCCNC(=O)c2ccncc2)cc1C do in these assays?
PINK1 modulator: -2.7%; D2 ag: 1.3; D2 PAM: -2; TRPML1 inh: 5; Six1-Eya2 inh: -1; TRPML1 ag: 1.6

Results for COc1ccc(CN(C(=O)CNC(=O)c2ccco2)C(C(=O)NC2CCCC2)c2ccco2)cc1 (configuration not stated) ?
PINK1 modulator: -0.7%; D2 ag: -5.7; D2 PAM: -18; TRPML1 inh: -7; Six1-Eya2 inh: -2; TRPML1 ag: -0.8

How did COc1ccc2[nH]c(C(=O)O)c(NS(=O)(=O)c3ccc(C)c(C)c3)c2c1 do in these assays?
PINK1 modulator: 1.3%; D2 ag: 3.1; D2 PAM: -7; TRPML1 inh: 36; Six1-Eya2 inh: -13; TRPML1 ag: 0.2

How did CCCCC1=CC2=C(c3ccco3)C(=O)C(C)(OC(=O)c3ccc(OC)cc3)C(=O)C2=CN1CCCOC(C)C (configuration not stated) do in these assays?
PINK1 modulator: -1.1%; D2 ag: 0.6; D2 PAM: -2; TRPML1 inh: -10; Six1-Eya2 inh: -21; TRPML1 ag: 0.1

What do the screens show for `CCN(CC)S(=O)(=O)c1ccc(C)c(NC(=O)CNc2cccc(S(=O)(=O)N3CCCC3)c2)c1`?
PINK1 modulator: 2.1%; D2 ag: 0.9; D2 PAM: -11; TRPML1 inh: 2; Six1-Eya2 inh: 2; TRPML1 ag: 0.6

How did O=[N+]([O-])c1cc2c(cc1/C=N\NS(=O)(=O)c1ccccc1)OCO2 do in these assays?
D2 ag: 2.6; D2 PAM: 3; TRPML1 inh: 15; Six1-Eya2 inh: -2; TRPML1 ag: 3.8

How did CCC(=O)N=c1ccn(C2=Nc3ccccc3NC2=C(C#N)C#N)cc1 do in these assays?
PINK1 modulator: -0.4%; D2 ag: -4.2; D2 PAM: -7; TRPML1 inh: -12; Six1-Eya2 inh: 8; TRPML1 ag: 1.5

How did Cc1nccc2oc(=O)c(NC(=O)c3ccc(Cl)cc3)cc12 do in these assays?
PINK1 modulator: -0.1%; D2 ag: -2.7; D2 PAM: 0; TRPML1 inh: -19; Six1-Eya2 inh: 0; TRPML1 ag: -0.2

What do the screens show for `O=C(N/N=C\c1ccc2c(c1)OCO2)c1ccco1`?
PINK1 modulator: -1.4%; D2 ag: -2.8; D2 PAM: -18; TRPML1 inh: 25; Six1-Eya2 inh: -2; TRPML1 ag: -0.3

What do the screens show for `O=C(c1ccccc1)N1CCN(c2ccc(NCc3ccc4c(c3)OCO4)cc2)CC1`?
PINK1 modulator: 0.1%; D2 ag: 1.2; D2 PAM: 1; TRPML1 inh: 21; Six1-Eya2 inh: -11; TRPML1 ag: 1.4

What do the screens show for `CN1C(=O)/C(=C/c2ccccc2OCc2cccc(F)c2)N(C)C1=S`?
PINK1 modulator: 11%; D2 ag: -4.0; D2 PAM: -15; TRPML1 inh: 27; Six1-Eya2 inh: 7; TRPML1 ag: -0.1

What do the screens show for `CCC(=O)N1CCc2cc(Br)cc(S(=O)(=O)N3CCCCC3CC)c21` (configuration not stated)?
PINK1 modulator: 4.9%; D2 ag: -8.3; D2 PAM: -7; TRPML1 inh: -1; Six1-Eya2 inh: -13; TRPML1 ag: -1.6

Results for COc1cc(CCCN2C(=O)C(=O)NC[C@@H]2Cc2ccc(O)cc2)cc(OC)c1OC ?
PINK1 modulator: -0.8%; D2 ag: 2.7; D2 PAM: 1; TRPML1 inh: 5; Six1-Eya2 inh: 2; TRPML1 ag: -0.1

Results for CN(C)c1ccc(/C=N/N2CCN(c3ccccn3)CC2)cc1 ?
PINK1 modulator: 3.4%; D2 ag: inconclusive; D2 PAM: 21; TRPML1 inh: -4; Six1-Eya2 inh: -5; TRPML1 ag: 0.3

Results for C[C@H](CO)N1C[C@H](C)[C@@H](CN(C)C(=O)Nc2ccccc2)Oc2ncc(C#CC3CCCCC3)cc2C1=O ?
PINK1 modulator: 1.0%; D2 ag: -2.9; Six1-Eya2 inh: -8

What do the screens show for `COc1ccc(N(C(=O)CCl)C(C(=O)NC2CCCCC2)c2cccnc2)cc1` (configuration not stated)?
PINK1 modulator: -2.2%; D2 ag: -9.1; D2 PAM: -3; TRPML1 inh: -6; Six1-Eya2 inh: 2; TRPML1 ag: -1.4

How did COc1ccc(-n2nc(C(=O)Nc3ccc4c(c3)OCO4)c3ccccc3c2=O)c(OC)c1 do in these assays?
PINK1 modulator: 10%; D2 ag: -0.4; D2 PAM: -1; TRPML1 inh: 0; Six1-Eya2 inh: 1; TRPML1 ag: 1.0

Results for Cc1cc2occ(CC(=O)Nc3nnc(C4CC4)s3)c2cc1C ?
PINK1 modulator: 10%; D2 ag: 2.1; D2 PAM: -3; TRPML1 inh: 4; Six1-Eya2 inh: 7; TRPML1 ag: 0.1

How did Cn1c(CC(=O)Nc2ccc(Cl)c(Cl)c2)nnc1SCC(=O)NCc1ccccc1 do in these assays?
PINK1 modulator: 0.2%; D2 ag: 4.7; D2 PAM: 7; TRPML1 inh: -10; Six1-Eya2 inh: -17; TRPML1 ag: -0.4

What do the screens show for `COc1ccc(C(=O)c2ccsc2N)cc1`?
PINK1 modulator: -1.1%; D2 ag: -4.6; D2 PAM: -7; TRPML1 inh: 5; Six1-Eya2 inh: 4; TRPML1 ag: 0.7

How did COc1cccc(NC(=O)COC(=O)CC(NC(N)=O)c2ccc(Cl)cc2)c1 (configuration not stated) do in these assays?
PINK1 modulator: 0.5%; D2 ag: -6.3; D2 PAM: -17; TRPML1 inh: -6; Six1-Eya2 inh: -1; TRPML1 ag: 0.2

How did CN(C)c1ccc(Cc2ccc(N(C)C)cc2)cc1 do in these assays?
PINK1 modulator: 19%; D2 ag: 0.8; D2 PAM: 0; TRPML1 inh: -18; Six1-Eya2 inh: -92*; TRPML1 ag: 1.1

How did COc1ccc(Cl)cc1NC(=O)CN1C(=O)CSC1=O do in these assays?
PINK1 modulator: -1.5%; D2 ag: -3.2; D2 PAM: -5; TRPML1 inh: -1; Six1-Eya2 inh: 2; TRPML1 ag: -0.3

What do the screens show for `COc1ccc2c(CN(C)c3ccccc3)cc(=O)oc2c1`?
PINK1 modulator: 1.7%; D2 ag: -4.9; D2 PAM: 5; TRPML1 inh: -4; Six1-Eya2 inh: 0; TRPML1 ag: -0.2

What do the screens show for `Cc1ccnc(NC(=O)C(C)N2C(=O)c3ccccc3S2(=O)=O)c1` (configuration not stated)?
PINK1 modulator: -0.7%; D2 ag: 2.8; D2 PAM: 17; TRPML1 inh: -8; Six1-Eya2 inh: -5; TRPML1 ag: 0.7

Results for Cc1ccc(C(=O)c2c(NC(=O)c3cccnc3)sc3c2CCCC3)cc1 ?
PINK1 modulator: 0.8%; D2 ag: -1.5; D2 PAM: -4; TRPML1 inh: 0; Six1-Eya2 inh: -24; TRPML1 ag: -0.4

What do the screens show for `O=C(COC(=O)c1cccc(Cl)c1)Nc1cc(S(=O)(=O)N2CCOCC2)ccc1N1CCOCC1`?
PINK1 modulator: 0.3%; D2 ag: -1.6; D2 PAM: -15; TRPML1 inh: -4; Six1-Eya2 inh: 2; TRPML1 ag: 2.2

Sorted by SMILES length (largest number first): some entries from above.
Results for COc1ccc(CN(C(=O)CNC(=O)c2ccco2)C(C(=O)NC2CCCC2)c2ccco2)cc1 (configuration not stated) ?
PINK1 modulator: -0.7%; D2 ag: -5.7; D2 PAM: -18; TRPML1 inh: -7; Six1-Eya2 inh: -2; TRPML1 ag: -0.8

What do the screens show for `O=C(c1ccccc1)N1CCN(c2ccc(NCc3ccc4c(c3)OCO4)cc2)CC1`?
PINK1 modulator: 0.1%; D2 ag: 1.2; D2 PAM: 1; TRPML1 inh: 21; Six1-Eya2 inh: -11; TRPML1 ag: 1.4

Results for CCN(C(=O)c1cnc(NC(C)C)cc1C(F)(F)F)c1ccc(Cl)cc1 ?
PINK1 modulator: 2.3%; D2 ag: -6.6; D2 PAM: -5; TRPML1 inh: 15; Six1-Eya2 inh: 9; TRPML1 ag: -0.4
